High-throughput results (PubChem BioAssay)
NS1 inh = inhibitors of influenza NS1 protein function; S. cerevisiae slowed by influenza A NS1, growth recovery by OD600; Potency, µM (highest dose often 46.1 µM), for inactives: at the top dose activity, positive = more growth; hit rate 0.4% among 270,000; also: actives are rising curves; nearly all actives have a fitted effect of over 50% in size
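Growth recovery, yeast-based: influenza A NS1 expressed in S. cerevisiae causes slow growth, and suppressors are detected by OD600. The parent strain without NS1 is used as positive control.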
Marburg entry inh = Marburg virus entry inhibition. AID 540276. hit rate 1.8% among 300,000. Marburg virus pseudotyped entry inhibition, cell reporter; control for the full effect not named in the record; about a third of the inactives were read at about 46 µM. Potency, µM (titrated, usually from 37.8 µM), inactives show at the highest dose activity change, negative = inhibition, hits mostly inhibitors; active = well fitted inhibition curve with a large enough effect; inconclusive = small, poorly fitted or top-dose-only effect, or effect the other way; inactive = flat fitted curve, though single readings scatter; tested in HEK293 cells; about a fifth of its hits are not listed in these tables; also: % is scaled to controls: 0 for no effect and ±100 for the full control effect; luciferase read-out
Lassa entry inh = inhibitors of Lassa virus binding or cell entry | Potency, µM (titrated, usually from 37.9 µM), without a hit: top-dose activity change, negative = inhibition, usual class: inhibitors | hit rate 1.2% among 300,000 | Lassa virus pseudotype entry inhibition, cell reporter; control for the full effect not named in the record; active means well fitted inhibition curve with a large enough effect; inconclusive means small, poorly fitted or top-dose-only effect, or effect the other way; inactive means flat fitted curve, though single readings scatter; tested in HEK293 cells; also: % is scaled to controls: 0 for no effect and ±100 for the full control effect; nearly all actives have a fitted effect of over 50% in size; luciferase read-out
RE007 growth inh = less growth of the S. pombe RE007 Vpr strain. hit rate 0.21% among 360,000. Potency, µM (highest dose often 92.2 µM), for the others: at the highest dose activity change, negative = less growth. S. pombe RE007 Vpr strain, BacTiter-Glo ATP luminescence, 24 h; control for the full effect not named in the record; active = well fitted falling curve with a large enough effect; inconclusive = small, poorly fitted or top-dose-only effect; inactive = no such curve, though single readings can be large or run the other way;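 also: % is scaled to controls: 0 for no effect and ±100 for the full control effect; nearly all actives have a fitted effect of over 50% in size; the assay follows cell death caused by Vpr and the record does not say whether a fall means rescue or toxicity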
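Fission yeast strain RE007, carrying one chromosomally integrated HIV-1 vpr copy, was seeded at OD 0.01 in PMG+AL medium with 23 nL pinned compound. After 24 h at 30 °C and 99% humidity, viability was read by BacTiter-Glo luminescence.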
StopGo reporter = lowers the luciferase signal of an FMDV 2A StopGo reporter. human cells with a luciferase reporter of 2A StopGo recoding; control for the full effect not named in the record. Potency, µM (titrated, usually from 57.9 µM), without a hit: top-dose signal change, negative = less light. AID 1159524. hit rate 1.2% among 410,000; active = well fitted falling curve with a large enough effect; inconclusive = small, poorly fitted or top-dose-only effect; inactive = no such curve, though single readings can be large or run the other way; tested in HEK293T cells; also: % is scaled to controls: 0 for no effect and ±100 for the full control effect; nearly all actives have a fitted effect of over 45% in size; luciferase light after 4 h
Cruzain noTriton = blocks cruzain activity in detergent-free assay. hit rate 2.3% among 200,000. P25779. purified cruzain, Z-FR-AMC fluorescence, no detergent. Potency, µM, inactives show max response, negative = inhibition, most hits filed as inhibitors. AID 1476; active = well fitted curve in the direction sought with a large enough effect; inconclusive = small, poorly fitted or top-dose-only effect, or another doubt; inactive = no such curve, though single readings can be large; an effect the other way counts as inactive or inconclusive;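 also: plate controls were enzyme without inhibitor for no effect and buffer without enzyme for full effect; nearly all actives have a fitted effect of over 40% in size; top concentration of the series not given in the record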
Target sequence (P25779 123-467 limits assumed): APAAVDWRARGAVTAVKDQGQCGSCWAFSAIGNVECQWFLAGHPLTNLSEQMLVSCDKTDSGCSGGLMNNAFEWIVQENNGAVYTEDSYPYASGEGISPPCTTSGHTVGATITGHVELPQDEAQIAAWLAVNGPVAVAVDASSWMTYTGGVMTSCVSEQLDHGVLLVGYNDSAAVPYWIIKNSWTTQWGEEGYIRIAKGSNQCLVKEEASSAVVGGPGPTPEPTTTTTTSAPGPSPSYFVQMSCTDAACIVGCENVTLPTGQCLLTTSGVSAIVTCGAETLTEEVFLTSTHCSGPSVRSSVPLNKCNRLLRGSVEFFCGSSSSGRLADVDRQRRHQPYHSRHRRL
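Purified cruzain at 1.5 nM, pre-incubated 15 min with compound at room temperature in 100 mM sodium acetate pH 5.5, 5 mM DTT, 0.00005% Triton X-100. Reaction started with 2 uM Z-FR-AMC; AMC fluorescence increase over 60 s gives rate.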
SARS PLP yeast = inhibitors of SARS-CoV papain-like protease in yeast; S. cerevisiae expressing SARS-CoV PLpro, growth rescue; control for the full effect not named in the record; Potency, µM (titrated, usually from 32.9 µM), without a hit: at the highest dose activity, positive = growth rescue; hit rate 0.19% among 330,000; also: 0% is about no effect; nearly all actives have a fitted effect of over 55% in size; growth read by luminescence after 48 h
Cruzain inh Det = cruzain (T. cruzi) inhibition with detergent | hit rate 0.43% among 200,000 | purified cruzain, Z-FR-AMC fluorescence, 0.01% Triton | Potency, µM, for the others: max response, negative = inhibition, usual class: inhibitors; active = well fitted curve in the direction sought with a large enough effect; inconclusive = small, poorly fitted or top-dose-only effect, or another doubt; inactive = no such curve, though single readings can be large; an effect the other way counts as inactive or inconclusive;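 also: plate controls were neutral wells for no effect and buffer without enzyme for full effect; nearly all actives have a fitted effect of over 40% in size; top concentration of the series not given in the record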
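Compounds were screened in titration against cruzain (1.5 nM) with 0.01% Triton X-100 to counter colloidal aggregation. Activity was the AMC fluorescence increase over 60 s after adding 2 uM Z-FR-AMC at pH 5.5.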
Numbers without * were called inactive; ? = inconclusive; . = no result given; & = joins results of further samples; [ ] = dose if it differs, or a comment. Unless noted, calls follow the shape of the dose curve; as a rule, active means well fitted rising curve with a large enough effect; inconclusive means small, poorly fitted or top-dose-only effect; inactive means no such curve, though single readings can be large or run the other way. Potency is read from the fitted curve at half-maximal effect.

SMILES | NS1 inh | Marburg entry inh | Lassa entry inh | RE007 growth inh | StopGo reporter | Cruzain noTriton | SARS PLP yeast | Cruzain inh Det
COc1cc(C(=O)Nc2ccc(C(F)(F)F)cc2)ccc1OCC(=O)N1CCOCC1 | . | 19%[46.1 µM] | -3% | -10% | 7% | . | -2% | .
Cc1ccc(-c2ccc(SCC(=O)c3ccccc3)nn2)cc1 | 8% | 0% | 3% | -26% | 4% | -5% | ? | -5.8%
COc1ccc(OC)c(NC(=O)C2CCN(S(=O)(=O)c3ccc4c(c3)CC(C)N4C(C)=O)CC2)c1 (stereo not given) | 12% | 3%&3%[46.1 µM] | -12%&-2%[46.1 µM] | -4% | -22%&0% | . | -5% | .
COc1ccc(CCNC(=O)c2csc3c2CCCC3)cc1 | . | ? | ? | -29% | 14% | . | -2% | .
CCC(C(=O)NC1CCCC1)N(C(=O)c1snc(C(N)=O)c1N)c1ccc2c(c1)OCCO2 (stereo not given) | ? | 2%&0% | -18% | -4% | -16% | -17% | -8% | 0.4%
COc1ccc(-n2ccnc2SCC(=O)NCc2ccc(F)cc2)c(OC)c1 | . | ? | ? | 38% | -15% | . | 5% | .
Cc1ccccc1NC(=O)CN1C(=O)NC(C)(c2ccc3c(c2)OCO3)C1=O (stereo not given) | 6% | 1% | 1% | 27% | -24% | 3% | -1% | -0.9%
COc1ccc2cc(Br)ccc2c1CC(=O)NCCCN1CCOCC1 | . | ? | 0%[46.1 µM] | -14% | -11% | . | . | .
O=C(N/C(=C\c1ccc(Br)cc1)C(=O)N1CCOCC1)c1ccc(Br)o1 | 6% | -12%[46.1 µM] | 0%[46.1 µM] | 14% | 34%[activator] | . | 0% | .
CCCCn1c(=O)c(CCC(=O)OCC(=O)NC(=O)NCCOC)nc2ccccc21 | . | ? | 2%[46.1 µM] | -3% | -12% | . | -3% | .
COc1cc2c(=O)nc3n(c2cc1OC)C(c1ccccc1)N=C(N)N3 (stereo not given) | 2% | . | . | . | . | -6% | 0% | -2.7%
Cc1cc(C(=O)NCCc2ccccc2)ccc1[N+](=O)[O-] | -8% | 18% | 0% | 5% | . | -1% | 0% | 0.4%
COc1ccccc1CNC(=O)Cn1nc(C)c2nn(-c3ccc(Cl)cc3)c(C)c2c1=O | . | . | ? | . | ? | -6% | . | 2.2%
Cc1ccc(C)c(NS(=O)(=O)c2cc(C(=O)NCc3ccccn3)ccc2Cl)c1 | -13% | -27% | -17% | 6% | 0% | -1% | 4% | -0.4%
O=C(NNC(=S)NC(=O)c1ccc(Br)cc1)c1ccc([N+](=O)[O-])cc1 | -90% | . | . | 19% | 0% | . | -5% | .
COP(=O)(OC)c1nc(-c2cccc3ccccc23)oc1N1CCOCC1 | -14% | ? | ? | -3% | 0% | 15% | -7% | -17%
C=CCNC(=O)c1c(N)n(-c2ccc3c(c2)OCO3)c2nc3ccccc3nc12 | -2% | ? | 0% | 2% | 7% | -3% | -12% | -0.8%
O=C(Nc1ccnn1C1CCN(C/C=C/c2ccccc2)CC1)C1CCCC1 | 21% | . | . | -6% | -5% | . | 1% | .
CC(C)CN(C)c1nc(N)c(C(=O)N=C(N)N)nc1Cl | -12% | 7.1µM* | . | . | . | 5% | . | -9.3%
CC(NC(=O)CC1CCCCC1)c1ccccc1 (stereo not given) | -35% | -1% | 0% | 4% | 0% | . | -1% | .
O=c1c2[nH]c3ccccc3c2ncn1Cc1ccccn1 | -2% | 26% | 7% | 1% | 1% | -1% | 2% | -7.3%
COC(=O)c1cn(-c2ccc(F)cc2)c(=O)c2ccccc12 | . | -11%[46.1 µM] | 0% | 16% | -23% | . | 0% | .
Cc1ccccc1C(=O)Nc1ccc2oc(-c3ccc(Cl)c(Cl)c3)nc2c1 | . | . | -7%[46.1 µM] | . | -8% | -8% | . | -0.1%
CC(C)Oc1ccc(C(=O)N(Cc2ccc(N(C)C)cc2)C2CCS(=O)(=O)C2)cc1 (stereo not given) | . | -24%[46.1 µM] | 1%[46.1 µM] | . | -14% | 1% | . | -2.7%
CCOc1cc(S(=O)(=O)n2cnc(C)c2)ccc1Cl | 0% | -1%[46.1 µM] | -14% | -16% | 23% | . | 0% | .
CC(C)(C)OC(=O)N1CCC(c2c(C(=O)N3CCN(c4ncccn4)CC3)cnn2-c2ccc(F)cc2F)CC1 | . | . | -20%[46.1 µM] | . | -4% | -7% | . | 0.5%
COCCN(C(=O)COC(=O)COc1ccc(Cl)c(C)c1)c1c(N)n(Cc2ccccc2)c(=O)[nH]c1=O | -2% | -9% | 3% | 1% | -19% | . | 0% | .
COc1ccc(CCNC(=O)c2ccc(N3CCCC3=O)cc2)cc1OC | -3% | 8% | -1% | -1% | -9% | 1% | -2% | -2.5%
COc1ccc(-c2cc(Nc3ccccc3NC(=O)C(F)(F)F)n(CCC#N)n2)cc1 | 1% | 17% | 3% | -2% | -9% | ? | 21% | -6.5%
Cc1cc(C)nc(N2CCC(C(=O)NNC(=O)Cc3ccccc3)CC2)n1 | -59% | . | . | 10% | -16% | . | -1% | .
CCn1ccc2cc(S(=O)(=O)N3CCC(C(=O)NCc4ccc(OC(C)C)cc4)CC3)ccc21 | . | . | -2%[46.1 µM] | . | 6% | -8% | . | -4.1%
COC(=O)C1=C(O)/C(=C\c2ccc(CNC(=O)C(=O)Nc3ccc(C)c(C)c3)o2)N=C1C | -1% | 12% | 6% | 0% | -12% | 17% | 6% | -6.9%
CCCC(=O)Nc1ccc2c(c1)nc(CCN1CCN(c3ccccn3)CC1)n2C | 0% | 13%[46.1 µM] | 23%[46.1 µM] | -22% | -15% | . | 0% | .
Cn1nc(Cc2n[nH]c(=S)n2C)c2ccccc2c1=O | 9% | 4%[46.1 µM] | -6% | 0% | 1% | . | -4% | .
Cc1cccn2c(=O)nc(SCC(=O)NCc3ccco3)nc12 | . | 26% | -12% | 0% | -12% | . | -2% | .
CC(C)CN(C(=O)COC(=O)CCC(=O)c1ccc(Cl)cc1)c1c(N)n(Cc2ccccc2)c(=O)[nH]c1=O | . | -18%[46.1 µM] | ? | 0% | 2% | . | 3% | .
CCCCCn1c(CN2CCN(c3cccc(Cl)c3)CC2)nc2c1c(=O)[nH]c(=O)n2C | -35% | -2% | . | 19% | ? | ? | -3% | -22%
O=C(CCNS(=O)(=O)c1ccc2[nH]c(=O)oc2c1)Nc1cccc(Br)c1 | -3% | . | . | -2% | 5% | . | 4% | .
O=C(O)CCCCCNC(=O)c1ccccc1Br | -6% | 25% | 19% | 6% | 18% | -7% | 1% | -2.6%
O=C(NCCN1CCCC1=O)C1CCC(=O)N(CCc2cccc(F)c2)C1 (stereo not given) | 3% | -28% | 14% | 7% | -8% | . | 0% | .
CN(C)S(=O)(=O)c1ccc(C(=O)NCc2nnc(SCC(=O)Nc3ccc(F)cc3)n2-c2ccc(F)cc2)cc1 | -4% | 1% | ? | -1% | 2% | ? | 16% | -2.9%
COc1ccc(-c2noc(N3CCC(C(=O)Nc4ccccc4OC)CC3)n2)cc1 | 6% | . | . | -9% | 0% | . | -8% | .
O=C(Cn1cnc2ccc(Br)cc2c1=O)c1cccs1 | -3% | 17% | 10% | -1% | 53%[activator] | -8% | -8% | -7.0%
O=C(Cn1cnc2ccccc2c1=O)c1cccs1 | -5% | 16% | 8% | 21% | -4% | 2% | -5% | 1.5%
O=C(NC1CCCc2ccccc21)c1cccnc1 (stereo not given) | -12% | 10% | 23% | 4% | -5% | -4% | -2% | -5.4%
c1ccc(SCc2nc3ccccc3[nH]2)cc1 | -34% | ? | -17% | 2% | -7% | 6% | 5% | -16%
O=C(Cn1c(=O)c2cccn2c2ccc(F)cc21)NCCCN1CCN(c2ccccc2F)CC1 | -8% | ? | 18%[46.1 µM] | 8% | -5% | . | 4% | .
O=C(Cn1c(=O)c2ccccc2n(CC(=O)Nc2ccc(F)cc2)c1=O)NCCc1ccccc1 | . | -2%[46.1 µM] | 12%[46.1 µM] | . | 13% | 4% | . | 1.3%
Cc1ccc(-c2nc(S(=O)(=O)c3ccc(F)cc3)c(SCC(=O)NCC3CCCO3)o2)cc1 (stereo not given) | 9% | ? | 0% | -1% | -9% | -26% | -34% | -3.5%
CN(C)c1ccc(/C=N/NC(=O)CCc2c[nH]c3ccccc23)cc1 | . | ? | 2µM* | 1% | 10% | . | 1% | .
COc1ccc(NC(=O)CCC(=O)c2ccc(C(C)C)cc2)cc1 | 8% | . | . | -1% | -22% | . | 3% | .
COc1ccccc1N1C(=NC(=O)CCc2ccccc2)SC2CS(=O)(=O)CC21 (stereo not given) | 3% | . | . | -5% | 18% | . | -4% | .
CN1C(=O)c2ccccc2Sc2ccc(C(=O)N3CCC4(CC3)OCCO4)cc21 | -2% | 0% | 1% | 0% | -6% | 3% | 3% | 3.6%
COc1ccc(/C=C/C(=O)NC(=S)NNC(=O)Cc2cccs2)cc1 | -77% | -21% | -27% | 10% | -6% | 13µM* | -5% | 0.2%
Cc1ccc(OP(N)(=O)Oc2ccc(C)cc2)cc1 | . | 18%[46.1 µM] | 6%[46.1 µM] | 1% | 6% | . | -8% | .
CCOC(=O)CCc1c(C)nc(SCC(=O)O)c(C#N)c1C | -8% | 17% | 0% | 6% | 14% | -5% | 5% | 2.6%
CCC[C@@H](CNC)NC[C@H](Cc1ccccc1)NCCCCc1ccccc1 | -9% | . | . | -1% | -20% | . | -11% | .
O=C(c1ccc(Cl)cc1)c1cnc(-c2ccccc2)s1 | ? | 3% | 2% | 22% | 39%[activator] | 4% | 6% | -4.5%
COCCn1c(=NC(=O)c2cc3ccccc3oc2=O)sc2cc(S(N)(=O)=O)ccc21 | 7% | ? | -4% | 5% | -16% | -1% | -4% | -5.5%
COc1cccc(C=Nc2ccc(C)c(F)c2)c1O | 5% | 18% | 3% | -6% | -15% | 6% | -2% | -0.5%
Cc1ccc(Cl)cc1N1CCN(C(=O)CN(c2ccccc2)S(=O)(=O)N(C)C)CC1 | . | 0%[46.1 µM] | -26% | 4% | 20µM* | . | -1% | .
CCCCNC(=O)c1ccccc1NC(=O)C1=C(C)OCCS1 | -3% | . | . | -4% | -18% | . | 0% | .

Compounds as they come; overall some 4.8% were active at least once.
